Screens as filed in PubChem BioAssay.
D2 PAM: positive allosteric modulators of human D2 dopamine receptor. DiscoveRx D2 beta-arrestin cells, luminescence, 90 min; 100% = 57 uM dopamine signal. P14416. 360,000 tested, 0.23% active. AID 624464. potentiation, % (no concentration beside the values); active = potentiation of 50% or more; inconclusive = 30% to 50%; inactive = 30% or less;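 further: compound concentration not given in the record; tested on top of an EC20 dose of dopamine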
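PathHunter D2 cells, attached overnight at 37 deg C, received compound in DMSO plus dopamine at EC20 (50 nM final) for 90 min at 37 deg C. Beta-arrestin recruitment was read as luminescence after 1 h with detection reagent at ambient temperature.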
CtBP-E1A blk: CtBP/E1A binding inhibition; AlphaScreen GST-E1A/His-CtBP binding, 1536-well; stronger effect = lower value; control for the full effect not named in the record; activity change, % (concentration not given with the values); 340,000 tested, 0.49% active; AID 651724; in the data active means activity change below about -65%; inconclusive means about -30% to -65%; inactive means above about -30%; further: on the % scale 0 is the no-effect control and ±100 the full control effect
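Protein mix (5X: 125 nM each GST-E1A, His-CtBP) was incubated with pinned compound 2 h at 37 deg C in dark, in 50 mM Tris pH 8.0 buffer with 300 mM NaCl. Glutathione donor and nickel acceptor beads followed; AlphaScreen signal read after 1 h.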
TRPV1 potentiator: human TRPV1 potentiation | potentiation, % at 8.33 µM | 320,000 tested, 0.02% active | TRPV1-expressing cells, Fluo-8 calcium influx, capsaicin EC20 potentiation; host cell line not named in the record; control for the full effect not named in the record | Q8NER1 | AID 540277; active means potentiation above 80%; inconclusive means 30% to 80%; inactive means below 30%; further: 0% is about no effect
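TRPV1-expressing cells were cultured overnight at 35.5C and loaded with Fluo-8 calcium dye for 40 to 90 min at room temperature. After a 10 s baseline, compound was added and calcium influx was read kinetically for 3 min (ex 480/em 520 nm).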
Six1-Eya2 inh: Six1/Eya2 interaction inhibition; Q15475+O00167; AlphaScreen GST-Six1/His-Eya2 binding, biochemical; stronger effect = lower value; control for the full effect not named in the record; activity change, % (test concentration not listed); 360,000 tested, 0.56% active; AID 651725; in the data active = activity change below about -65%; inconclusive = about -30% to -65%; inactive = above about -30%; further: on the % scale 0 is the no-effect control and ±100 the full control effect; compound concentration not given in the record
Target sequence (O00167 whole entry, looked up): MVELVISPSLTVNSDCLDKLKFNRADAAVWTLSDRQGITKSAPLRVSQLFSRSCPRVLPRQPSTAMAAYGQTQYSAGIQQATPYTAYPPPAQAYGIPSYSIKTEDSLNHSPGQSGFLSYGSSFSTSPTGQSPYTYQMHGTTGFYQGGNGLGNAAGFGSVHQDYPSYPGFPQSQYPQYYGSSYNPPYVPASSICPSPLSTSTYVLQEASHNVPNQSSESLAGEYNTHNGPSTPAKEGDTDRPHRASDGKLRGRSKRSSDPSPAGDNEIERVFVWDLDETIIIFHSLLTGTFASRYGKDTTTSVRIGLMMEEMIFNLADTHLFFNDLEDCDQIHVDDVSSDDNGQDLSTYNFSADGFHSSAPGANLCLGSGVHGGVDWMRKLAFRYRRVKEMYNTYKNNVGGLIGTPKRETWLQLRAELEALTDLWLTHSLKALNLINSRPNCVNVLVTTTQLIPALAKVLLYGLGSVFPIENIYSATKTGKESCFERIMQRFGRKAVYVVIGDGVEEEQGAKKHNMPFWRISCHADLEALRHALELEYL
Target sequence (Q15475 whole entry, looked up): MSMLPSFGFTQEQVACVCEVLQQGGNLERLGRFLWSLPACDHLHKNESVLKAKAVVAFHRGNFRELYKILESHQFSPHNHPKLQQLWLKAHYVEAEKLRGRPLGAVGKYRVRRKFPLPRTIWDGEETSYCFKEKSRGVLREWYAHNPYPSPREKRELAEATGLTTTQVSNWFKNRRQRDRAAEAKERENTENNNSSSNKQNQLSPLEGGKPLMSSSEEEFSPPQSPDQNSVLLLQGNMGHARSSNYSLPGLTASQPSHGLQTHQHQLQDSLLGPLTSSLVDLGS
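AlphaScreen with GST-Six1 and His-Eya2 (5X mix: 250 nM and 500 nM), glutathione donor and nickel acceptor beads; buffer 50 mM Tris pH 8.0, 300 mM NaCl, 1 mM TCEP; 1 h at 37 C in the dark.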
TRPML1 agonist: agonists of human TRPML1 channel | Q9GZU1 | TRPML1-expressing cells, Ca2+ dye fluorescence, FDSS; host cell line not named in the record; reference of the full effect not given here | activation, % (test concentration not listed) | 410,000 tested, 0.12% active; in the data active = activation above about 50%; inconclusive = about 30% to 50%; inactive = below about 30%; further: 0% is about no effect; the text of the record puts the active cut at 80%
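Tetracycline-induced TRPML1-DL cells are seeded and incubated overnight before loading with a no-wash Ca2+ dye and quencher. Agonist activity is taken from the 110 s fluorescence read following compound pin-transfer on an FDSS, before EC80 54-4 challenge.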
TRPML1 inh: inhibitors of human TRPML1 channel; Q9GZU1; TRPML1-inducible cells, Ca2+ dye fluorescence, FDSS; stronger effect = lower value; inhibition of EC80 agonist-evoked calcium signal; activity change, negative = inhibition, % (no concentration beside the values); 390,000 tested, 0.02% active; AID 624415; in the data active means activity change below about -50%; inconclusive means about -30% to -50%; inactive means above about -30%;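 further: stimulus is agonist 54-4 at its EC80 concentration; on the % scale 0 is the no-effect control and ±100 the full control effect; compound concentration not given in the record; the text of the record puts the active cut at -80%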
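Calcium fluorescence in TRPML1-DL cells induced overnight with Tet: a 110 s read after compound pin addition, then a 110 s antagonist read after challenge with 54-4 at 4 uM final (EC80).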
The depositor's hits bear a star; ? = inconclusive; . = not tested or not shown.

SMILES	D2 PAM	CtBP-E1A blk	TRPV1 potentiator	Six1-Eya2 inh	TRPML1 agonist	TRPML1 inh
CC(C)C[C@H](NC(=O)[C@@H](Cc1ccccc1)n1c(=O)[nH]c2ccccc2c1=O)C(=O)N[C@@H](Cc1ccccc1)C(=O)O	-8	3	5	0	.	.
O=C(Nc1ccc([N+](=O)[O-])c(NC(=O)c2cccnc2)c1)c1cccnc1	1	-3	.	-4	0.6	4
CCOc1ccc(S(=O)(=O)N2CCN(C(=O)c3ccncc3)CC2)cc1	-3	-1	6	-2	0.4	1
CCCc1nc2ccc(C)cn2c1Cc1ccsc1	-14	-10	.	1	-0.1	.
O=[N+]([O-])c1ccc(Cc2nnc(-c3ccc(F)cc3)o2)cc1	-7	.	-8	0	-0.2	22
O=C(CSc1ncnc2sc3c(c12)CCCC3)NC1CCS(=O)(=O)C1 (centres undefined)	-4	-6	.	0	0.4	33
Cc1ccc(-c2ccnc3c(Br)c(C)nn23)cc1	-14	.	-9	57	2.0	-15
Cc1nc(N2CCN(c3ccccn3)CC2)c2c(C)c(C(=O)N3CCN(c4ccccc4F)CC3)sc2n1	-3	-2	11	-23	3.1	7
CCc1cn(S(=O)(=O)c2ccccc2OC)nc1N	-7	-1	-1	-1	0.7	-6
Oc1ccc(Br)cc1/C=N/N1CCN(Cc2ccccc2)CC1	-10	-25	-5	-23	0.0	-1
CN(C(=O)COC(=O)c1cc2ccccc2cc1O)C1CCCCC1	0	2	2	6	1.5	18
COc1ccc(CN2CCOCC2)c(C)c1C	-26	3	8	4	-0.1	-3
O=C(NC1CCN(C(=O)c2cccc([N+](=O)[O-])c2)CC1)c1ccccc1	-5	9	22	-3	0.7	-1
OCCNCCOCCOc1ccccc1-c1ccccc1	-35	-6	-26	-2	-0.2	3
O=C(C[n+]1ccccc1)N/N=C/c1ccccc1C(F)(F)F	-11	2	1	1	.	.
COC(=O)c1c(C)[nH]c(C(=O)OCC(=O)N2c3ccccc3NC(=O)C2(C)C)c1C	5	-7	-3	-6	1.8	-10
CCOc1ccccc1N(CC(=O)N1CCOCC1)S(=O)(=O)c1ccc(SC)cc1	14	-4	-33	4	105*	-3
O=C(NCC1CCCO1)C(=O)N/N=C/c1ccccc1C(=O)O (centres undefined)	-3	.	-5	-3	-0.1	0
CCCCC(O)(CCCC)C(=O)NN(C(=O)OC)c1ccccc1	-4	-16	-5	16	0.2	-11
Cc1ccc(-c2nn(C(C)(C)C)c3ncnc(NS(=O)(=O)c4ccc([N+](=O)[O-])cc4)c23)cc1	-5	-23	3	-26	0.6	27
CCCCn1c(N)c(N(CC(C)C)C(=O)c2ccc(Cl)c(S(=O)(=O)N3CCCC3)c2)c(=O)[nH]c1=O	-4	-8	-1	11	0.6	49
O=C(N/N=C/c1cc(Cl)cc([N+](=O)[O-])c1O)NC12CC3CC(CC(C3)C1)C2	-9	5	-1	-13	0.4	-10
CCc1cc2c(cc3c(=O)n(CC(=O)NCCCN(CC)CC)nc(CC)n32)s1	-6	-3	16	6	-0.4	-5
CN1CCN(C(=O)c2ccc(S(=O)(=O)Nc3ccccc3)cc2)CC1	-5	9	0	2	-0.2	-7
COCCn1c(SC(C)C(=O)NC2CC2)nnc1-c1cccc(C)c1 (centres undefined)	-22	7	0	8	-0.5	-1

The results go on.
SMILES	D2 PAM	CtBP-E1A blk	TRPV1 potentiator	Six1-Eya2 inh	TRPML1 agonist	TRPML1 inh
CN(C)c1ncnc2c1ncn2[C@H]1CN(CCN2CCOCC2)C[C@@H](CO)O1	-5	4	.	3	0.3	.
O=C(Nc1ccc2c(c1)OCO2)c1ccc(CO)cc1	4	-7	-19	0	0.7	-11
COC(=O)c1ccc(OC(=O)/C=C/c2ccco2)cc1	-1	-93*	?	-85*	0.5	-10
O=C(Nc1cc(C(F)(F)F)ccc1N1CCOCC1)c1ccc(Br)o1	0	3	-10	-5	3.1	9
Cc1ccc(C)c(S(=O)(=O)N2CCN(C(=O)Cn3c(C(F)(F)F)nc4ccccc43)CC2)c1	-1	-1	-1	3	1.0	18
CC(C)(C)c1ccc(C2(C)NC(=O)N(CC(=O)Nc3ccc4c(c3)OCO4)C2=O)cc1 (centres undefined)	6	-8	11	0	2.6	12
O=C1N(C2CCCC2)C[C@@H]2C[C@@H](c3cn[nH]c3-c3ccc(Cl)cc3)N3CCC[C@@]123	-12	3	16	-1	0.7	-6
Cc1cc2nc(N)sc2cc1C	-8	5	16	0	-1.1	24
COc1cc(NC(=O)C2CC2)c(OC)cc1NC(=O)c1ccco1	-4	-14	4	-24	-0.5	0
Nc1ccc2c(c1)C(=Cc1cccnc1)c1ccccc1-2	-28	-27	.	?	-0.4	-9
COc1ccc(Cc2nnc(NC(=O)Cc3cccs3)s2)cc1	-5	0	0	-25	-1.1	-1
Cc1ccc(OCCCOc2cccc3cccnc23)cc1C	-12	3	9	-3	0.0	16
O=C(Nc1cccc(Cl)c1Cl)Nn1cnnc1	-31	-5	-16	-4	-0.1	-3
COc1ccc(C(=O)Oc2ccc(Br)cc2C(=S)N2CCOCC2)cc1	-9	-29	4	-19	-0.6	2
Nc1nc(NCCCN2CCOCC2)nc(Nc2cccc(Cl)c2)c1[N+](=O)[O-]	-19	-1	5	-23	-0.5	-8
Cc1cscc(C)c1=S	-5	3	.	-12	0.3	8
COc1cccc(NC(=O)CN(C)C(=O)c2ccc(-c3cccc(C(F)(F)F)c3)o2)c1	-14	3	24	-4	0.1	6
Cc1cc(C)c(S(=O)(=O)Nc2ccc(N3CCOCC3)cc2)c(C)c1	-2	-1	-8	-6	5.5	-8
CCC(=O)Nc1ccccc1C(=O)OC(c1ccccc1)c1ccccc1	-24	13	-5	15	1.3	-8
CCOC(=O)c1c(N)sc(C(=O)N2CCCCC2)c1C	-13	4	-11	-3	0.6	0
O=C1NC2(CCCCO2)CO1 (centres undefined)	-6	0	19	0	-0.9	-6
COc1ccccc1/C=N/n1cnnc1	2	.	6	-2	0.2	5
CN(C)C(=O)CSc1nc2ccccc2n1Cc1ccccc1	-19	12	-2	1	-0.3	-7
CC(=O)OCC(=O)C1(O)CCC2C3CC(F)C4=CC(=O)CCC4(C)C3C(O)CC21C (centres undefined)	5	1	.	2	-0.2	31
CC1(C)NC(=O)N(CC(=O)Nc2nc(-c3ccc(F)cc3)cs2)C1=O	-5	-14	0	-1	-0.3	4

Brought forward from above: 6 entries, followed by the next part.
SMILES	D2 PAM	CtBP-E1A blk	TRPV1 potentiator	Six1-Eya2 inh	TRPML1 agonist	TRPML1 inh
CCOC(=O)c1c(N)sc(C(=O)N2CCCCC2)c1C	-13	4	-11	-3	0.6	0
O=C1NC2(CCCCO2)CO1 (centres undefined)	-6	0	19	0	-0.9	-6
COc1ccccc1/C=N/n1cnnc1	2	.	6	-2	0.2	5
CN(C)C(=O)CSc1nc2ccccc2n1Cc1ccccc1	-19	12	-2	1	-0.3	-7
CC(=O)OCC(=O)C1(O)CCC2C3CC(F)C4=CC(=O)CCC4(C)C3C(O)CC21C (centres undefined)	5	1	.	2	-0.2	31
CC1(C)NC(=O)N(CC(=O)Nc2nc(-c3ccc(F)cc3)cs2)C1=O	-5	-14	0	-1	-0.3	4
CC(=O)c1ccc(NC(=S)Nc2ccn(Cc3ccc(Br)cc3)n2)cc1	-1	0	16	-7	0.1	10
O=C(Nc1ccc(F)cc1Cl)c1ccc2c(=O)n3c(nc2c1)CCCCC3	-30	-1	5	-4	1.7	-10
COc1cccc(NC(=O)c2ccccc2-c2nc(-c3ccccc3)no2)c1	-18	4	-1	12	2.7	-19
CCOc1ccc2nc(Cl)c(/C=C/C(=O)c3ccco3)cc2c1	-5	0	-9	-1	2.3	19
Cc1ccc(S(=O)(=O)NCCC(=O)N2CCC(C(N)=O)CC2)cc1C	-2	-2	13	4	0.7	16
O=C(/C=C/[C@H]1O[C@@H](n2cnc3c(NC(=O)c4ccccc4)ncnc32)[C@H](O)[C@@H]1O)NCc1ccco1	-4	2	.	-2	-0.4	-11
CCn1c(SCC(=O)Nc2cc(C)ccc2C)nc2c(c1=O)SC(C)C2 (centres undefined)	0	-4	5	2	0.5	16
CN1C(=S)SC(/[N+]([O-])=C\c2ccc(Cl)cc2)C1(C)C (centres undefined)	-8	9	0	-1	-0.5	14
O=C(c1ccccc1)c1ccc2nc(-c3ccco3)c(-c3ccco3)nc2c1	17	-8	3	?	1.4	-13
O=C(Nc1nccs1)[C@@H]1CCCN1S(=O)(=O)c1ccc(Cl)cc1	-4	10	.	1	1.0	13
O=C(COc1ccc2ccccc2c1)Nc1ccc(Br)cc1C(=O)O	-2	-8	27	13	2.8	59
CN(CC(=O)Nc1ccc(F)cc1)C(=O)COC(=O)c1ccc(-c2ccccc2)cc1	3	-3	-5	-6	1.7	15
CC1CN(c2nc3c(c(=O)n(Cc4ccc(Cl)cc4)c(=O)n3C)n2C)CC(C)O1 (centres undefined)	0	-22	-10	-9	0.2	1
CCOC(=S)SCc1cn2cccc(C)c2n1	-4	0	7	-1	1.3	1
COc1cc(C)ccc1OCC(=O)Nc1ccc2c(c1)OCO2	-1	-5	-12	-1	0.1	20
COc1ccc(C2/C(=C(/O)c3ccc4c(c3)CC(C)O4)C(=O)C(=O)N2CCCN2CCOCC2)cc1 (centres undefined)	-8	-14	5	6	-0.1	-7
CCOC(=O)[C@]12CCC=C1N(CCC1=CCCCC1)C(=O)[C@H](CC(=O)NCC1CCCCC1)C2	.	3	.	-2	-1.0	.
CC(C)c1ccc(/C=C2\CC/C(=C\C=N\N(C)C)C2=O)cc1	-5	5	11	-12	1.5	12
CCOc1ccc(OCC)c(NC(=O)CC2Oc3ccc(C)cc3NC2=O)c1 (centres undefined)	0	0	-8	-5	2.9	-23
O=c1ccn(CCOc2ccc(Cl)cc2)c(=O)[nH]1	-12	-2	5	5	0.0	0
CCCCOc1ccc(/C=C/C(=O)OCC(=O)NC(=O)NCC(C)C)cc1OCC	-20	0	-6	-1	0.3	4
COc1ccccc1CN1CC(C(=O)NCc2cc(F)ccc2C)CCC1=O (centres undefined)	-4	0	-5	1	-0.2	8
O=C(C1CCN(S(=O)(=O)c2cccc3nsnc23)CC1)N1CCCc2ccccc21	-14	-7	.	-6	1.2	10
CCc1nnc(NC(=O)CCC(=O)N2CCCC(O)C2)s1 (centres undefined)	0	17	-5	13	-0.1	60
CC(=O)Oc1c(Cl)c(N2CCOCC2)c(OC(C)=O)c2ccccc12	1	0	-24	-8	0.0	20
Cc1ccc2c(nc3s/c(=C/c4cccs4)c(=O)n32)c1C	-3	1	-2	6	-0.6	1
COc1ccc(CNC(=O)Cn2cc(C(F)(F)F)ccc2=O)cc1OC	1	1	0	0	0.9	4
CC(C)(C)C(=O)Nc1ccc(C(=O)Nc2cccnc2)cc1	-16	6	-9	-1	-0.3	9
COc1cc(OC)c(OC)cc1CNC(=O)c1ccc(COc2ccccc2)cc1	4	-5	5	-12	2.2	11
O=C(COC(=O)Cc1ccccc1F)Nc1ccc2c(c1)OCCO2	-10	9	-34	7	-0.6	-1

Not a hit list. Share with any hit: about 0.95%.
